Screening results (PubChem BioAssay)
MLL AF4-AF9 inh: inhibitors of AF4 peptide binding to AF9, primary screen, biochemical, AlphaScreen, biotin-AF4 peptide, FLAG-AF9, single point; AID 651704, 2012; inhibition, % at 10 µM; 0.47% of 350,000 active; Protein AF-9 (Homo sapiens), P42568;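 active = every replicate reaching a set inhibition limit, whatever the replicate mean, cut at about 25% in these data; inconclusive = mean inhibition reaches that limit but some replicates miss it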;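 also: 0% = plate neutral control median and 100% = total signal loss; the record names both 10 and 1 µM as test concentration; the first replicate is given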
Calb FLC: C. albicans growth inhibition with fluconazole, primary screen, CaCi-2 strain, Alamar Blue fluorescence; 0.57% of 300,000 active; growth inhibition, % (concentration not given with the values); AID 1979, 2009; C. albicans CaCi-2 (fluconazole-resistant clinical isolate) + fluconazole, 48 h;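 active = most replicates above 75%; inconclusive = exactly half above 75%; inactive = most below 75%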;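 also: all wells also contain fluconazole at 8 µg/ml as a sub-toxic cotreatment; 0% = median of DMSO wells and 100% = median of geldanamycin control wells; wells of about 8 µL received 7.5 nL stock; the first replicate is given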
Vif TR-FRET: inhibitors of Vif binding to APOBEC3G peptide, primary screen, biochemical, TR-FRET, GST-Vif 1-94, biotin-A3G peptide, dose response retest (AID 1117319); 0.57% of 260,000 active; TR-FRET GST-Vif / biotin-A3G peptide binding; higher % means a stronger effect; test concentration not given here; strong numbers were not always called active; inhibition, %, or IC50 in µM where a hit was titrated;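 active = above the screen mean plus three standard deviations and confirmed in dose response; inconclusive = results disagree or hit not tested in dose response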;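 also: Vif residues 1-94 fused to GST binding biotinylated APOBEC3G peptide 110-148; 0% = full assay without inhibitor and 100% = GST in place of GST-Vif; retest series ran down from 100 µM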
T cruzi repl: inhibitors of intracellular T. cruzi growth, primary screen, luminescence, NIH3T3 host cells; 1.4% of 300,000 active; T. cruzi beta-gal in NIH3T3, 90 h; inhibition, % (concentration not given with the values);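 active = mean inhibition across valid replicates above about 55%, limit read from the data; inconclusive = mean below that limit but half or more replicates reach it; inactive = mean below it, under half of replicates reach it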;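 also: signal also drops with host cell toxicity which is not excluded here; 0% = plate median of DMSO wells and 100% = zero luminescence signal; higher percent means less beta-gal luminescence so fewer parasites; stock transfer was 50 nL into about 50 µL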
RanGTP-Impb inh: inhibitors of RanGTP-importin-beta interaction, primary screen, biochemical, FRET, CFP-Ran, YFP-importin-beta, homogeneous | cell-free CFP-Ran/YFP-importin-beta FRET ratio | Ran GTPase (GTP-bound) - importin-beta complex | inhibition, % (no concentration beside the values) | 1.1% of 300,000 active | AID 2216, 2009;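 active = most replicates above 15%; inconclusive = exactly half above 15%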;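 also: 0% = DMSO wells and 100% = Ran loaded with GDP instead of GTP; wells of about 40 µL received 100 nL stock; the first replicate is given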
LANA-H2B inh: blockers of LANA interaction with H2A/H2B – biochemical, FP readout, HTS, primary screen; Protein LANA1 (Human herpesvirus 8 type P (isolate GK18)), Q9QR71; cell-free LANA-H2A/H2B peptide, fluorescence polarization; inhibition, % (test concentration not listed); 0.6% of 320,000 active; AID 2629, 2010; in the data active = inhibition mostly above about 10%, no sharp cut-off; inactive = mostly below about 6.7%;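 also: stock transfer was 7.5 nL into about 10 µL; 0% = median of vehicle wells and 100% = median of positive control wells; one replicate is shown; the record names a cut of 25% in any replicate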
Target sequence (Q9QR71 whole entry, looked up): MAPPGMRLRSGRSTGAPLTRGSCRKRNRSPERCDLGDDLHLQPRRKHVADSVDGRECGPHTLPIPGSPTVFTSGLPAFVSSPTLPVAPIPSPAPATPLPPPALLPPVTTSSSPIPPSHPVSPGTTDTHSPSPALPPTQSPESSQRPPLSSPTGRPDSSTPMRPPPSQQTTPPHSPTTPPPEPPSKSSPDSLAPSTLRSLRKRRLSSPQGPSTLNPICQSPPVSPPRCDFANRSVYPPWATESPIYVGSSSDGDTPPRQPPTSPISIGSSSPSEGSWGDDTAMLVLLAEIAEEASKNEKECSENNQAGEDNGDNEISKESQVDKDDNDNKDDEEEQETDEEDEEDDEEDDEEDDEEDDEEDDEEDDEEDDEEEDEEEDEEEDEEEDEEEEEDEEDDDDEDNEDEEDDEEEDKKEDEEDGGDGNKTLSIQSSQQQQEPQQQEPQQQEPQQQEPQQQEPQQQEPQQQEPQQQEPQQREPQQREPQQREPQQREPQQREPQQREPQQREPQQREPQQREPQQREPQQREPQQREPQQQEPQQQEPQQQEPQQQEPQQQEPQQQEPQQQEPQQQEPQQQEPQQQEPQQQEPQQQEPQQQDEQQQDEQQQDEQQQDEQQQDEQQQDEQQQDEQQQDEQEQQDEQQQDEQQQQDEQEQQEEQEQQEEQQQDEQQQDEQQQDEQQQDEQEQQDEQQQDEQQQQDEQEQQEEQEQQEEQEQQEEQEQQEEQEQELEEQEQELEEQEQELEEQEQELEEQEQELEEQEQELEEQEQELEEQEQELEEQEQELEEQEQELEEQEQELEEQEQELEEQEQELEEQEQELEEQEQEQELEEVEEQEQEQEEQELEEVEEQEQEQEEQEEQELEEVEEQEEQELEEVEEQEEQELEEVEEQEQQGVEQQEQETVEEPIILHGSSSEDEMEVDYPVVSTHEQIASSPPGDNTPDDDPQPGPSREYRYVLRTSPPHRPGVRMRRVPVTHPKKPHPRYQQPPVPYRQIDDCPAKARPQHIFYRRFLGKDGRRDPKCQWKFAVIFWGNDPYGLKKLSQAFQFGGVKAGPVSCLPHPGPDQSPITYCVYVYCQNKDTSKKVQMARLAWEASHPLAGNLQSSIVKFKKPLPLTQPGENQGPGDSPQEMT
Beta apoptosis: inhibitors of cytokine-induced beta cell apoptosis, primary screen, luminescence | INS-1E cytokine-induced death, ATP luminescence, 48 h; percent of positive-control rescue, neutral wells zero | protection from apoptosis, % (test concentration not listed) | 0.8% of 300,000 active | AID 435005, 2010;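 active = all replicates at 75% or more, or half of them and the mean; inconclusive = half reach 75% but not the mean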;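 also: 0% = cytokine-treated negative control wells and 100% = positive control rescue; higher means more ATP so stronger rescue from cytokine killing; wells of about 40 µL received 100 nL stock; the first replicate is given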
A1 inh: caspase 3/7 activation in MEF A1-2A-BIM cells, primary screen, A1 inhibitor project, cell-based, luminescence, HTS | 0.066% of 330,000 active | Caspase-Glo 3/7 luminescence, 3 h; percent of clofoctol response, vehicle zero | caspase activation, % (concentration not given with the values);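 active = over half of replicate activation scores above 10%, or exactly half above 10 with the replicate mean above 10; inconclusive = replicate mean below 10 yet half the replicates above 10; inactive = over half of replicates below 10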;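 also: wells of about 30 µL received 50 nL stock; many hits fall short of the cut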
Numbers without * were called inactive; ? = inconclusive; nt = no result given. An unsorted share of the library; any-hit rate near 4.3%.

Results follow in this order: RanGTP-Impb inh | T cruzi repl | Calb FLC | A1 inh | Beta apoptosis | MLL AF4-AF9 inh | Vif TR-FRET | LANA-H2B inh
Nn1c(SCc2nc3ccccc3[nH]2)nnc1-c1ccccc1
  -0.8 | -17 | -6 | -0.3 | -3 | nt | -2% | 1.0
O=C(NCc1ccc2c(c1)OCO2)C1CCN(S(=O)(=O)N2CCCCC2)CC1
  ? | -4 | -1 | -0.5 | -6 | nt | 0% | 5.0
Cc1cccc(N2C(=O)c3ccc(Br)cc3C2=O)n1
  1.5 | -2 | 7 | 0.0 | -15 | 4.3 | 1% | 3.3
CCCCOC(=O)Nc1cc(Cl)ccc1C
  -2.0 | 1 | 1 | -0.3 | 4 | nt | ? | -9.0
O=C(COC(=O)CCC(=O)c1cccs1)Nc1ccc(S(=O)(=O)N2CCOCC2)cc1
  0.9 | -7 | 0 | 0.2 | -10 | nt | 4% | 5.6
COc1cc(C(C)=O)ccc1OCC(=O)Nc1ccc(C)c(S(=O)(=O)N2CCCCCC2)c1
  nt | nt | nt | 0.4 | 5 | 0.5 | -20% | -496
COC(=O)C(NC(=O)CSc1nc(N)cc(=O)[nH]1)c1ccccc1 (stereo not given)
  -4.2 | -1 | -7 | -0.4 | nt | -4.6 | nt | -0.7
CC(CN1CCC(n2nccc2NC(=O)CCCc2ccccc2)CC1)c1ccccc1 (stereo not given)
  1.5 | 35 | -31 | -0.8 | -6 | -4.9 | nt | -0.5
CCN(CC)C(=O)c1ccc(C)c(Br)c1
  3.3 | -13 | 11 | 0.6 | -6 | nt | -5% | -0.5
CC1CN(S(=O)(=O)c2cccc(C(=O)OC(C)C(=O)NC3CCCCC3C)c2)CC(C)O1 (stereo not given)
  2.3 | -4 | 1 | 1.2 | -1 | -2.1 | nt | 2.8
COc1ccc(CCNc2cc(=O)[nH]c(N)n2)cc1
  -3.2 | -1 | -7 | -0.5 | 3 | ? | 16% | 2.5
CN(C)c1cccc2c1C(=O)c1ccccc1C2=O
  1.0 | 12 | 18 | 1.7 | 9 | 43* | nt | 5.8
Cc1ccc(S(=O)(=O)N2CCCOC2CNC(=O)C(=O)NCCC2=CCCCC2)cc1 (stereo not given)
  2.8 | -3 | 16 | -0.1 | nt | nt | -6% | -1.8
O=C(c1ccc2c(Cl)c3c(nc2c1)CCCC3)N1CCN(c2ccc(F)cc2)CC1
  ? | -27 | 2 | nt | -4 | -4.8 | 0% | -4.8
COc1ccccc1CCN=C(N)NS(=O)(=O)c1ccccc1
  nt | -12 | nt | 0.1 | -6 | -12 | 1% | -2.9
CC(C)c1cc(C(F)(F)F)n2nc(C(=O)Nc3ccc4c(c3)OCO4)cc2n1
  2.1 | -1 | -1 | -0.3 | -1 | nt | -20% | 2.4
O=C(Cc1cccc(NC(=O)C2CCN(C(=O)C3CCCCC3)CC2)c1)Nc1cccc(C(=O)N2CCCC2)c1
  nt | nt | nt | -1.5 | 7 | -25 | nt | 3.9
CN1CCN(c2ccc([N+](=O)[O-])cc2C(=O)N2CCCCC2)CC1
  -1.5 | -20 | 1 | -0.3 | -8 | 2.8 | 2% | -2.1
CSc1ccc(CN(C)CCc2ccccn2)cc1
  2.2 | 59* | -13 | 1.0 | nt | -0.9 | -12% | -2.4
C=CCNC(=O)c1ccccc1NC(=O)Nc1ccccc1
  1.9 | -10 | 28 | -6.0 | 0 | 5.5 | 3% | 5.1
Cc1nc(Cl)sc1C(=O)NC(C)c1ccc(Cl)cc1 (stereo not given)
  -4.3 | -13 | -28 | -0.3 | 1 | -7.7 | -3% | -1.0
CCC(C)(C)n1nnnc1C(c1cccnc1)N1CCC(Cc2ccccc2)CC1 (stereo not given)
  -1.3 | 64* | -19 | 0.3 | 11 | 5.4 | 3% | 3.0
COc1ccc(Br)cc1-c1noc(-c2ccccc2)n1
  -0.2 | 5 | 4 | -0.2 | -3 | nt | -8% | -1.1
CCOC(=O)c1ccc2c(c1)[n+](CC)c(C)n2-c1ccccc1
  0.3 | -6 | -16 | 0.6 | 1 | -1.1 | nt | 3.0
CCOC(=O)c1[nH]c(C)c(C(=O)NC2CCCC2)c1C
  0.5 | -4 | -4 | 0.2 | -6 | 0.0 | 0% | 3.9
Cc1c(Cl)cccc1-n1c(SCC(=O)N2CCC(C(=O)O)CC2)nnc1-c1ccncc1
  -0.8 | -8 | -5 | 0.1 | 0 | 0.0 | -12% | -0.8
Cn1c(-c2ccc3c(c2)OCO3)cnc1NCc1ccc(Cl)cc1
  4.4 | 4 | 45 | 0.6 | -3 | nt | 31% | -1.4
CCCC(=O)Nc1ccc(S(=O)(=O)Nc2cc(C)nc(C)n2)cc1
  1.6 | -6 | 2 | 0.8 | -3 | nt | 21% | 2.8
CCCCC(C(=O)NC(C)c1ccccc1)C(=O)NC(C)c1ccccc1 (stereo not given)
  -7.3 | 5 | 7 | 0.6 | -12 | -0.2 | 1% | 2.0
COc1ccc(-n2c(C)cc(C(=O)NC3CCCCC3)c2C)cc1
  -1.7 | 23 | 28 | -0.1 | 1 | 9.7 | 9% | 2.9
O=C(Nc1ccc(S(=O)(=O)N2CCc3ccccc32)cc1)c1ccc2c(c1)OCO2
  4.8 | 57* | ? | -0.3 | nt | nt | 10% | 1.6
O=C(Nc1ccc(CN2CCOCC2)cc1)c1ccc(Br)o1
  2.5 | -32 | -4 | -3.6 | 2 | -1.3 | -10% | -1.5
CCOC(=O)NC(=O)COC(=O)CNC(=O)c1cccc(OC)c1
  2.2 | -14 | 1 | 0.5 | -5 | 1.7 | nt | -1.5
CCN(c1ccccc1)S(=O)(=O)c1ccc(OC)c(NC(=O)C2CCC2)c1
  nt | nt | nt | 0.0 | -3 | -0.8 | nt | 0.5
c1ccc2nc(-c3ccc4c(c3)OCO4)ccc2c1
  -2.2 | -23 | -9 | -11 | 3 | -5.5 | 6% | -2.7
CCCOc1ccc(-c2nnn(CC(=O)OCC)n2)cc1
  -3.1 | -5 | 14 | -0.5 | -5 | nt | 70% | -0.9
Cc1noc(/C=C/c2cccs2)c1S(=O)(=O)N1CCC(C(=O)NCCCN2CCCC(C)C2)CC1 (stereo not given)
  1.9 | 24 | 23 | 0.0 | 0 | 13 | 11% | 2.6
CCOC(=O)n1c(=O)oc2ccccc21
  -0.9 | -18 | 3 | 0.2 | 9 | -31 | 2% | 1.4
COc1nc(-c2ccccc2)cc(C(F)(F)F)n1
  4.0 | -10 | 0 | 1.5 | -1 | -4.5 | 4% | 2.3
Cc1c(C(=O)NCCCN2CCOCC2)oc2ccc(S(=O)(=O)N3CCOCC3)cc12
  2.2 | -4 | 0 | 0.5 | -1 | 0.2 | 0% | 3.0
Cc1cccc2cc(C(c3nnnn3Cc3ccccc3)N3CCCc4ccccc43)c(=O)[nH]c12 (stereo not given)
  ? | 5 | -1 | 1.0 | -7 | nt | 8% | -0.2
O=C1CN(C(=O)CNC(=O)c2ccc(Cl)cc2Cl)CCN1
  0.3 | -10 | -10 | 0.2 | -1 | -3.0 | ? | 5.8
Cc1occc1C(=O)Nc1cc(C(C)(C)C)on1
  -0.5 | -14 | 3 | -9.7 | 23 | nt | 2% | 0.8
Nc1nc2nccc(-c3ccccn3)n2n1
  -1.9 | -7 | -5 | 0.7 | -5 | -0.2 | 26% | 4.5
O=C(Nc1ncccc1O)c1ccc(OCC2CCCO2)cc1 (stereo not given)
  1.3 | -26 | 2 | -11 | 7 | -3.1 | nt | 4.0
O=C(CCS(=O)(=O)c1cccc2nsnc12)NC1CCCCC1
  9.2 | -9 | 12 | 0.2 | 1 | nt | 3% | 5.3
N=c1oc2c3c4c(cc2cc1C(=O)Nc1ccccc1)CCCN4CCC3
  133* | 7 | 2 | 0.0 | -5 | nt | 10% | 7.5
COc1ccccc1N(C)S(=O)(=O)c1ccc(C(=O)Nc2ccncc2)cc1
  -5.8 | 33 | nt | 0.2 | 10 | 2.2 | -4% | -5.9
CC1(C)Cc2c(c(-c3ccccc3Cl)[nH]c(=O)c2C#N)CO1
  ? | -11 | -20 | 0.7 | 2 | nt | 25% | -0.5
Cc1cc(F)ccc1NS(=O)(=O)c1c(C(=O)N2CCOCC2)c(C)n(C)c1C
  3.2 | -13 | -1 | -0.7 | -3 | -7.3 | nt | -0.8
CCNc1nc(NCC)n2c(SCC(=O)Nc3cc(OC)ccc3OC)nnc2n1
  3.6 | -6 | 5 | -0.3 | -1 | -1.9 | 4% | nt
COc1ccc(CCN2C(=O)C(Oc3ccccc3)C2c2ccc3c(c2)OCO3)cc1 (stereo not given)
  -0.1 | 5 | 1 | 0.1 | -8 | nt | 0% | 0.7
CCN1C(=O)/C(=C/C=C2/CCCN2C)OC1=S
  0.9 | 2 | 15 | -0.7 | -4 | 0.5 | nt | 1.5
COc1ccc2oc(-c3ccccc3)c(C(N)=O)c2c1
  -0.8 | -9 | 7 | 0.6 | -9 | nt | 15% | -0.9
CSCCC(NS(=O)(=O)c1ccccc1F)C(=O)NCC(C)(C)N1CCOCC1 (stereo not given)
  nt | nt | nt | 1.4 | -2 | -1.8 | 1% | -1.9
CNC(=O)c1c(NC(=O)CCS(=O)(=O)c2ccccc2)sc(C)c1C
  -1.5 | -16 | 4 | 0.1 | -6 | -22 | 1% | -1.9
COc1cc(/C=C2\NC(=S)N(C)C2=O)ccc1O
  2.3 | -11 | 10 | -0.4 | nt | 2.1 | 4% | -7.2
O=C(NCc1ccco1)c1ccc2c(c1)N(Cc1ccc(Cl)cc1)CCS2
  -2.2 | 48 | -3 | -0.5 | -13 | -8.4 | -10% | -0.8
CCOC(=O)c1ccc(NC(=O)c2cccc(S(=O)(=O)N3CCN(C(C)=O)CC3)c2)cc1
  1.3 | 16 | -1 | -0.7 | 5 | -3.4 | nt | -4.9
Cc1cccc(CSc2nnc(-c3cnccn3)n2C)c1
  7.2 | -34 | 6 | -0.3 | -6 | -1.6 | -2% | 0.0

(next part)
Results follow in this order: RanGTP-Impb inh | T cruzi repl | Calb FLC | A1 inh | Beta apoptosis | MLL AF4-AF9 inh | Vif TR-FRET | LANA-H2B inh
O=C(COC(=O)c1ccc2ncsc2c1)Nc1cccc(Cl)c1
  nt | nt | nt | 0.5 | -1 | -3.0 | nt | -3.0
COc1ccc(CCNC(=O)C(=O)NCC2OCCN2S(=O)(=O)c2ccc(C)cc2)cc1 (stereo not given)
  0.0 | -16 | -8 | -0.6 | -4 | 1.9 | nt | 5.5
Cc1cccc(N2C(S)=C(C#N)C(=O)NC23CCCCC3)c1
  -1.2 | -16 | 4 | 1.5 | 3 | -0.6 | -6% | 0.4
Cc1ccsc1/C=N/NC(=O)c1nnn(-c2nonc2N)c1CN(C)c1ccccc1
  -0.8 | 1 | nt | 0.0 | -6 | 3.1 | nt | 0.2
